TRPML1 agonist = agonists of human TRPML1 channel; Q9GZU1; activation, % (test concentration not listed); TRPML1-expressing cells, Ca2+ dye fluorescence, FDSS; host cell line not named in the record; reference of the full effect not given here; actives 0.12% (n = 410,000); in the data active = activation above about 50%; inconclusive = about 30% to 50%; inactive = below about 30%; further: 0% is about no effect; the text of the record puts the active cut at 80%
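Kinetic FDSS Ca2+ read in Tet-induced TRPML1-DL cells (ABD Ca8 dye plus quencher, 45-90 min RT loading): baseline, then compound, then 110 s agonist window; EC80 agonist 54-4 at 4uM final added afterwards for a 110 s antagonist window.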
Sfp inh = Sfp phosphopantetheinyl transferase inhibition | actives 3.5% (n = 310,000) | Potency, µM, for inactives: max response, negative = inhibition, usual class: inhibitors | Q9F4F7 | AID 1490 | Biochemical Sfp PPTase activity, qHTS; active means well fitted inhibition curve with a large enough effect; inconclusive means small, poorly fitted or top-dose-only effect, or another doubt; inactive means no such curve, though single readings can be large or run the other way;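 further: the enzyme is Sfp with the accession as filed and its product quenches rhodamine fluorescence; potency means the concentration at half of the fitted maximal effect; 0% = enzyme reaction without inhibitor and -100% = no enzyme wells; top concentration of the series not given in the record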
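Sfp 15 nM + cpd, 15 min RT; start w/ rhodamine-CoA 5 uM, BHQ-2-YbbR 12.5 uM (final); 50 mM Hepes pH 7.6, 10 mM MgCl2, 0.01% NP-40, 0.01% BSA; read 525/598 nm at 0 and 30 min.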
TRPV1 potentiator = potentiators of human vanilloid receptor 1 (TRPV1); Q8NER1; TRPV1-expressing cells, Fluo-8 calcium influx, capsaicin EC20 potentiation; host cell line not named in the record; control for the full effect not named in the record; potentiation, % at 8.33 µM; actives 0.02% (n = 320,000); active means potentiation above 80%; inconclusive means 30% to 80%; inactive means below 30%; further: 0% is about no effect
Target sequence (Q8NER1 whole entry, looked up): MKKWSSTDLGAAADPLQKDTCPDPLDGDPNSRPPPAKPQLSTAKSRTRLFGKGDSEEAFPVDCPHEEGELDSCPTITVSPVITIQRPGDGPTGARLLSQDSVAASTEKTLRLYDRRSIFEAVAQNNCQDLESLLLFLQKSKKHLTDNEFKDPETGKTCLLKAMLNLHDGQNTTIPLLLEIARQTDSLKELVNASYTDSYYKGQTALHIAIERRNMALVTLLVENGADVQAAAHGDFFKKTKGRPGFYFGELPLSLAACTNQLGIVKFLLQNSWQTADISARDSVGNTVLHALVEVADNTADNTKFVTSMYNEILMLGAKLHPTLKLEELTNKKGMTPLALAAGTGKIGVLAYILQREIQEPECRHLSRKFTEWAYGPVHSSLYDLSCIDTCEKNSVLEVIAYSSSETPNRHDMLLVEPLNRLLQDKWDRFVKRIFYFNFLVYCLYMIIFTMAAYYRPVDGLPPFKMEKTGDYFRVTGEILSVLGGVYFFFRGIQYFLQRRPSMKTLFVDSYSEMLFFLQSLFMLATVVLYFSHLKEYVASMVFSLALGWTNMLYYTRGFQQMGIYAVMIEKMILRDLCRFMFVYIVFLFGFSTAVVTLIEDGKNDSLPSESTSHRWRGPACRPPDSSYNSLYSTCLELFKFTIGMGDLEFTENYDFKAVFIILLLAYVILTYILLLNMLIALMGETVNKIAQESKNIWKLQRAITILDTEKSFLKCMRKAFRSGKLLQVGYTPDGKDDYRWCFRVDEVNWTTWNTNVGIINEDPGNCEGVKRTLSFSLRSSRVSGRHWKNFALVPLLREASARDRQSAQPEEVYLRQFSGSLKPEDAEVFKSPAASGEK
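Fluo-8 calcium influx in TRPV1-expressing cells, kinetic read (ex 480/em 520 nm). Compound added and read 3 min for agonist activity, followed by capsaicin at EC20 final and 2 min further read for enhancement.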
PINK1 expr mod = PINK1 expression modulation; actives 0.2% (n = 410,000); Potency, µM (top dose mostly 76.6 µM), for inactives: top-dose activation (PINK1 increase), usual class: activators; PINK1 immunofluorescence, high-content cytometry, 24 h; active = well fitted activation curve with a large enough effect; inconclusive = small, poorly fitted or top-dose-only effect; inactive = flat fitted curve, though single readings scatter; cell line not stated here;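 further: potency means the concentration at half of the fitted maximal effect; % of control where 0% means no effect; nearly all actives have a fitted effect of over 65% in size; a mitochondrial uncoupler was the plate control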
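Stable cell line treated 24 h with compounds at 5 concentrations (CCCP controls), then fixed and immunostained for PINK1 plus nuclear and cell stains; PINK1 immunofluorescence quantified by laser-scanning microplate cytometry.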
ClpP mod = qHTS Assay for Activators of ClpP | ATP-dependent Clp protease proteolytic subunit (Bacillus subtilis (strain 168)), P80244 | purified B. subtilis ClpP, FRET peptide cleavage, 20 min | Potency, µM (doses to about 57.5 µM), for the others: at the highest dose activity change, negative = active | actives 1.9% (n = 340,000) | AID 651965, 2013; active = well fitted falling curve with a large enough effect; inconclusive = small, poorly fitted or top-dose-only effect; inactive = no such curve, though single readings can be large or run the other way; further: potency means the concentration at half of the fitted maximal effect; the source files actives as falling curves though it sought activators and does not explain the sign; nearly all actives have a fitted effect of over 65% in size; many hits overshoot -100%
Target sequence (P80244 whole entry, looked up): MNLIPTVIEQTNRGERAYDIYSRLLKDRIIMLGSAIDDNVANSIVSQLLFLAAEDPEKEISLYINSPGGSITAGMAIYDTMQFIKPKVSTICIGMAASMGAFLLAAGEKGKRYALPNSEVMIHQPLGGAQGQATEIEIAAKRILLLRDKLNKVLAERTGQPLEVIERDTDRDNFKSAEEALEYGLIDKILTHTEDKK
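FRET quenching reversal measured ClpP activation: 10 microg/mL B. subtilis ClpP at pH 8 with the FRET-FV decapeptide, read at 430 nm after 320 nm excitation. The 20-min minus 0-min signal was scaled between DMSO/no-enzyme wells and ADEP (5.8 microM final).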
TRPML1 blocker = blocks the human TRPML1 channel | Q9GZU1 | TRPML1-inducible cells, Ca2+ dye fluorescence, FDSS; stronger effect = lower value; inhibition of EC80 agonist-evoked calcium signal | activity change, negative = inhibition, % (concentration not given with the values) | actives 0.02% (n = 390,000) | AID 624415; in the data active means activity change below about -50%; inconclusive means about -30% to -50%; inactive means above about -30%;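 further: stimulus is agonist 54-4 at its EC80 concentration; on the % scale 0 is the no-effect control and ±100 the full control effect; compound concentration not given in the record; the text of the record puts the active cut at -80%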
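Tet-induced TRPML1-DL cells loaded with Ca8 no-wash calcium dye were read kinetically on FDSS. Compound addition was followed by EC80 agonist 54-4 (4 uM final); inhibition was read over 110 s.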
Menin-MLL FL inh = displaces fluorescein MLL peptide from human menin. AID 1766. 290,000 tested, under 10 active. Fluorescence polarization, fluorescein-MLL peptide displacement from menin. FP activity change, % at 61.4 µM; inconclusive = falling polarisation curve, or a change in total fluorescence; inactive = total fluorescence flat and polarisation flat or rising; no compound was filed as active; the % refers to the polarisation; negative = inhibition;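 further: % of control where 0% means no effect; inhibitors lower the polarisation; unlabelled MLL peptide was the positive control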
The depositor's hits bear a star; ? = inconclusive; . = no result given; & = joins results of further samples; ! = a repeat was not active; [ ] = dose if it differs, or a comment.

SMILES	TRPML1 agonist	Sfp inh	TRPV1 potentiator	PINK1 expr mod	ClpP mod	TRPML1 blocker	Menin-MLL FL inh
CCCN1C(C(=O)c2ccccc2)=C(OC(=O)COc2ccc(C)cc2)c2ccccc2S1(=O)=O	-0.5	.	.	3.2%	1.5%	-4	.
CNC(=O)CSc1nnnn1-c1cc(C)ccc1C	1.3	16%	18	-0.4%	-1.9%	-9	-1.8
O=C(Nc1ccc(Cl)c(Cl)c1)Nc1ccc(Br)cc1F	0.1	?	-13	?	-9.1%	1	-1.2
CCCCNc1nc(-c2ccccc2)c(C(=O)OCC)cc1C#N	2.1	1%	9	30%	?	-6	7.8
O=C1NC2(CCCCC2)N=C1c1ccc(F)cc1	-0.8	15%	-12	5.2%[38.3 µM]	1.2%	-9	2.3
COc1ccc(N2CC(C(=O)N3CCN(c4ccccc4)CC3)CC2=O)cc1 (centres undefined)	0.1	12%	-9	2.7%	-1.0%	5	.
Cc1[nH]c2c(C)cccc2c1CN1CCC(CO)(Cc2ccccc2)CC1	.	4%	14	0.7%	-1.1%	.	-4.7
O=C(CN1C2CCCC1CC(NC(=O)C1CCCCC1)C2)NCc1ccc(F)cc1 (centres undefined)	-0.7	10%	-3	-0.5%	-1.5%	2	1.3
CN(C)c1cc(N/N=C/c2ccc(Cl)cc2)nc(N(C)C)n1	3.6	?	-15	22%	-9.1%	11	2.1
O=C(NCC1CCCO1)C1CC(=O)N(c2ccc(F)c(Cl)c2)C1 (centres undefined)	-0.7	7%	.	-0.5%	0.4%	44	1.5
Cc1nn2c(=O)c(NC(=O)c3ccc(F)cc3)cnc2s1	-0.6	24%	-2	-2.8%	-2.2%	10	5.8
COC(=O)N1CCN(c2ccc(OC)cc2)CC1	-0.2	4%	-23	3.3%[38.3 µM]	-4.6%	-1	-2.6
Cc1ccc2ccc3c(c2n1)NS(=O)(=O)c1ccccc1-3	1.5	.	18	-1.4%	.	-7	.
CCC(CC)c1nc2ccccc2c(=O)[nH]1	0.5	6%	16	1.2%	-2.5%	14	1.2
COc1ccc(-c2csc(NC(=S)NC(=O)c3ccc4ccccc4c3)n2)cc1OC	0.9	-6%	-10	-0.8%	-0.6%	-2	.
O=C(Nc1ccccn1)c1cccs1	-0.7	-3%	-8	0.2%	-2.0%	14	3.5
COc1ccc(S(=O)(=O)n2ccc(-c3cnc(-c4ccccc4)s3)n2)cc1	0.2	3%	.	4.8%	28µM*	6	0.0
CCOC(=O)N1CCN(C(=O)c2cc(COc3ccc(F)cc3F)on2)CC1	1.3	10%	1	3.7%	-12%	6	.
Cc1ccc(S(=O)(=O)c2nnn3c2nc(NCc2ccc4c(c2)OCO4)c2sccc23)cc1C	1.0	.	.	0.3%	20µM*	9	.
O=C(CN1C2=NCCCN2c2ccccc21)c1ccc(Cl)cc1Cl	0.0	-17%	4	0.4%	0.9%	-2	6.8
CCCCCCCCCCCCCCCC(=O)Nc1ccn(C2OC(CO)C(O)C2O)c(=O)n1 (centres undefined)	-0.4	.	.	-3.6%	-2.2%	6	.
COc1ccccc1OC(=O)Nc1ccc(Cl)cc1	.	-2%	14	2.2%	-0.3%	.	-1.9
Cc1ccc(C(=O)O)cc1NC(=O)c1ccc2c(c1)C(=O)N(c1ccc([N+](=O)[O-])cc1)C2=O	-0.5	-5%	-6	1.9%	.	-14	-5.8
COC(=O)[C@H](Cc1ccccc1)NC(=O)N1CCCCCC1	.	16%	-1	0.1%	0.2%	.	-12
CN(NC(=O)c1ccccc1F)c1nc(C(F)(F)F)nc2ccccc12	-0.6	6%	-1	6.3%	.	-18	-0.9
COc1ccc(C(=O)O)cc1N1C(=O)Nc2ccccc2N1O	1.6	3%	-7	0.4%	-20%	2	0.0
Cc1cccc(CN2CCC(Oc3ccc(C(=O)N4CCCC4)cc3)CC2)n1	0.2	0%	1	0.8%	-0.3%	1	-7.4
CCOC(=O)N1CCC(N2CCN(S(=O)(=O)c3ccc4ccccc4c3)CC2)CC1	0.5	?	-2	-5.2%[38.3 µM]	-3.1%	3	1.9
CCCCc1cc(=O)oc2c3c(cc(OCC(=O)N4CCC[C@H]4C(=O)O)c12)OC(C)(C)CC3	.	8%	16	-0.2%	4.7%	.	1.1
COc1ccc(N2CCN(S(=O)(=O)CCNC(=O)Cc3ccc([N+](=O)[O-])cc3)CC2)cc1	-1.0	17%	7	9.6%	-0.6%	12	-10
COc1ccc(S(=O)(=O)NC2CCCC2)cc1Br	1.8	6%	5	0.3%	-0.7%	-8	0.8
O=C(CN(Cc1ccco1)C(=O)CNS(=O)(=O)c1ccc(F)cc1)NCc1ccco1	-0.7	15%	6	3.6%	.	-8	.
CCN(c1ccccc1)S(=O)(=O)c1cccc(C(=O)O)c1	-0.4	18%	-12	2.2%[38.3 µM]	-3.5%	0	1.7
COc1ccccc1N1CCN(CCCCOc2ccc(F)cc2)CC1	0.9	-11%	9	-2.7%	0.4%	13	-1.4
COc1cc(C(=O)OCc2csc(CC(=O)Nc3ccccc3C)n2)ccc1OCC(C)C	2.5	.	5	1.0%	.	2	.
O=C(NCCC1=CCCCC1)C(=O)NCc1ccncc1	-0.2	19%	4	4.2%	.	2	0.4
COc1cccc(NC(=O)c2nn(-c3ccc(OC)cc3OC)c(=O)c3ccccc23)c1	0.5	15%	-3	14%	50%	25	3.5
COC(=O)c1ccccc1NC(=O)c1ccc2c(c1)CCN2S(=O)(=O)c1ccc(C)cc1	-0.5	.	.	0.0%	0.9%	-5	.
Cc1cc(C(=O)NC2CCCN(Cc3ccc(Cl)cc3)C2)c(C)o1 (centres undefined)	0.0	-4%	-4	-0.5%	0.8%	-3	.
Oc1ccc(C[C@H]2CN([C@@H](Cc3ccccc3)CN3CCCC3CN3C(=S)NC[C@@H]3Cc3ccccc3)C(=S)N2CCc2ccccc2)cc1 (some centres undefined)	-0.5	.	.	-0.2%	-1.1%	.	.
COc1ccc(CC(=O)Nc2ccccc2N2CCCCC2)cc1OC	1.6	1%	-16	1.0%	.	-21	3.0
O=C(O)c1ccc2ncc(NC(=O)c3ccc(F)cc3)c(=O)n2c1	0.1	18%	13	-1.6%	.	7	1.3
COc1ccccc1CNS(=O)(=O)c1ccc(N2CCCCS2(=O)=O)cc1	-0.3	.	.	0.6%	4.6%	0	.
COc1cc(NCCCNC(C)C)c2nccc(C)c2c1	-0.7	.	.	6.0%	.	2	.
C/C=C/c1ccc(OCC(=O)NCc2ccccc2OC)c(OC)c1	-0.5	-3%	-12	5.0%	-2.4%	4	-0.8
CCOC(=O)/C(C(N)=NCc1ccco1)=C(/O)c1ccccc1	0.7	-17%	-2	9.4%[38.3 µM]	-0.5%	-3	0.4
Cc1ccc(-c2noc(CSc3nnc(Cc4ccccc4)n3-c3cccc(C)c3)n2)cc1	-0.2&-0.2	3%	4	?	-0.1%&-1.8%	-21&0	-1.0
O=C(O)/C=C/c1ccc(O)c(O)c1	-0.5	56µM*!	-2	0.1%&3.1%	-6.3%	4	?
CNC(=O)C1CCC(Cn2c(=O)c3sccc3n(CC(=O)NCc3ccc(F)cc3)c2=O)CC1 (centres undefined)	0.6	.	.	-0.5%	-3.0%	3	.
CCN(CC(=O)NCc1cccs1)C(=O)/C=C/c1cc(OC)ccc1OC	0.7	.	0	1.5%	4.4%	-7	.
CCN1CCN(Cc2c(C)[nH]c3ccc(OC)cc3c2=O)CC1	-0.3	6%	7	1.2%	?	17	0.1
Cc1ccc(NC(=O)CN2CCN(S(=O)(=O)c3ccc4c(c3)OCCO4)CC2)c(C)c1	-0.4	.	.	1.7%	-0.2%	0	.
COc1cccc(OCCn2c(-c3ccc(Br)cc3)nc3ccccc3c2=O)c1	-0.4	.	.	0.9%	-8.1%	-18	.
CCN(CCCNC(=O)c1cc2cc3ccc(C)cc3nc2s1)c1ccccc1	1.4	.	.	5.9%	-15%	-6	.
O=C(CSCc1ccc(F)cc1)N1CCN(c2ccc(Cl)cc2)CC1	0.5	.	.	0.4%	-1.4%	50	.
C/C(=N\NC(=O)c1nnn(-c2nonc2N)c1CSc1ccc(C)cc1)c1cccs1	-0.1	.	.	2.3%	0.1%	6	.
NC(=O)COC(=O)c1cc(S(=O)(=O)N2CCOCC2)ccc1N1CCCCC1	0.8	6%	0	3.4%	-3.0%	-2	0.0
CC(C(=O)NC1CC(C)(C)NC(C)(C)C1)c1ccc([N+](=O)[O-])cc1 (centres undefined)	0.2	19%	-1	0.0%	.	-6	-0.9
CCOc1ccccc1NC(=O)CSc1nc(=O)n(Cc2ccccn2)c2c1CCC2	0.5	.	-34	1.2%	0.2%	1	.
COc1ccc(C)cc1S(=O)(=O)NCC(c1ccc2c(c1)OCO2)N1CCOCC1 (centres undefined)	0.2	.	0	-0.9%	1.4%	-7	.

Remaining list, next part:
SMILES	TRPML1 agonist	Sfp inh	TRPV1 potentiator	PINK1 expr mod	ClpP mod	TRPML1 blocker	Menin-MLL FL inh
N#Cc1c(-c2ccc(F)cc2)cc(-c2cccs2)nc1SCC(=O)O	3.0	2%	-3	0.5%	4.3%	3	-3.5
COc1ccc(NC(=O)CC2SC(=N)N(c3ccccc3)C2=O)c(OC)c1 (centres undefined)	1.4	15%	-15	0.6%	.	-8	7.3
CCOc1ccccc1NC(=O)Nc1ccc(Br)cc1C	0.6	3%	7	5.1%	-2.7%	-7	-2.8
CC[C@]12C(=O)N(C)C[C@H]([C@@H]3C(=O)N(C)C(=O)[C@@H]31)N2C(=O)c1ccc(C(C)(C)C)cc1	-0.3	.	.	1.2%	-0.8%	-9	.
Nc1nc(N=Nc2ccc(O)cc2)cc(=O)[nH]1	-0.1	.	.	-0.6%	-1.2%	6	.
Cc1cc(O)cc2c1C1CCC3(C)C(=O)CCC3C1C=C2 (centres undefined)	1.2	.	.	3.3%	.	-6	.
COc1ccc(NC(=O)Cc2c(F)c(F)c(F)c(F)c2F)cc1OC	-0.2	12%	-4	10%	2.5%	-12	2.0
C[C@H]1CN([C@@H](C)CO)C(=O)CCCn2cc(nn2)CO[C@@H]1CN(C)C(=O)Nc1cccc2ccccc12	1.1	.	.	1.6%	4.5%	-5	.
